Bioassay records deposited in PubChem by National Center for Advancing Translational Sciences (NCATS).
TRPML1 ag: human mucolipin-1 channel agonism; TRPML1-expressing cells, Ca2+ dye fluorescence, FDSS; host cell line not named in the record; reference of the full effect not given here; activation, % (no concentration beside the values); 410,000 compounds, 0.12% hits; AID 624414; in the data active = activation above about 50%; inconclusive = about 30% to 50%; inactive = below about 30%; also: 0% is about no effect; the text of the record puts the active cut at 80%
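Tetracycline-induced TRPML1-DL cells are seeded and incubated overnight before loading with a no-wash Ca2+ dye and quencher. Agonist activity is taken from the 110 s fluorescence read following compound pin-transfer on an FDSS, before EC80 54-4 challenge.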
PINK1 expr mod: PINK1 expression modulation | PINK1 immunofluorescence, high-content cytometry, 24 h | Potency, µM (series often up to 76.6 µM), without a hit: at the highest dose activation (PINK1 increase), usual class: activators | 410,000 compounds, 0.2% hits | AID 624263; active = well fitted activation curve with a large enough effect; inconclusive = small, poorly fitted or top-dose-only effect; inactive = flat fitted curve, though single readings scatter; cell line not stated here;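 also: potency is read from the fitted curve at half-maximal effect; % of control where 0% means no effect; nearly all actives have a fitted effect of over 65% in size; a mitochondrial uncoupler was the plate control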
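Cells are seeded, rested 12 hours, then given compound at five concentrations or DMSO for 24 hours. After fixation, blocking and antibody staining, PINK1 amount and mitochondrial localization are scored; CCCP serves as control.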
Six1-Eya2 inh: Six1/Eya2 interaction inhibition. AlphaScreen GST-Six1/His-Eya2 binding, biochemical; hits give low values; control for the full effect not named in the record. activity change, % (test concentration not listed). 360,000 compounds, 0.56% hits. AID 651725. Q15475+O00167; in the data active = activity change below about -65%; inconclusive = about -30% to -65%; inactive = above about -30%; also: % is scaled to controls: 0 for no effect and ±100 for the full control effect
Target sequence (O00167 whole entry, looked up): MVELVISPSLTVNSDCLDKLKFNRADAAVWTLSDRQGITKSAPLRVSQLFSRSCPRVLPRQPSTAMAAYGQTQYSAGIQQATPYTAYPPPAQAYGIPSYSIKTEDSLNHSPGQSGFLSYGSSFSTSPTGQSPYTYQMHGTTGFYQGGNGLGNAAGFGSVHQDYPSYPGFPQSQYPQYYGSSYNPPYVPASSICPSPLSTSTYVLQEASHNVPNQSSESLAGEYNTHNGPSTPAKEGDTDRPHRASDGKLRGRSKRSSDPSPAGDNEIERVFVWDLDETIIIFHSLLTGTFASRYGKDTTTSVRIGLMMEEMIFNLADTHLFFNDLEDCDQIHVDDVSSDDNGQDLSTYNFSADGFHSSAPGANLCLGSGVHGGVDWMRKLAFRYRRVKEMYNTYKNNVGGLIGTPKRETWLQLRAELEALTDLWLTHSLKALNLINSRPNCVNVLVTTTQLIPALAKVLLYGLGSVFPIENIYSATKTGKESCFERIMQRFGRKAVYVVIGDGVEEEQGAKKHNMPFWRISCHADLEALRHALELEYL
Target sequence (Q15475 whole entry, looked up): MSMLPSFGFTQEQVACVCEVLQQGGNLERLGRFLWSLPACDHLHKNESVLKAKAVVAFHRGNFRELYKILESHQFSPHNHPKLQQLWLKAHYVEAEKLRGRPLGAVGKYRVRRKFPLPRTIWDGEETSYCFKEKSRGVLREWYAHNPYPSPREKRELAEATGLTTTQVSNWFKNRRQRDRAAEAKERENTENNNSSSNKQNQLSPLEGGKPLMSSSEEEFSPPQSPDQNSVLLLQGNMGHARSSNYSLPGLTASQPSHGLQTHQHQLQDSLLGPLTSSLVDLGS
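AlphaScreen with GST-Six1 and His-Eya2 (5X mix: 250 nM and 500 nM), glutathione donor and nickel acceptor beads; buffer 50 mM Tris pH 8.0, 300 mM NaCl, 1 mM TCEP; 1 h at 37 C in the dark.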
D2 PAM: positive allosteric modulators of human D2 dopamine receptor. DiscoveRx D2 beta-arrestin cells, luminescence, 90 min; 100% = 57 uM dopamine signal. potentiation, % (test concentration not listed). 360,000 compounds, 0.23% hits. AID 624464; active = potentiation of 50% or more; inconclusive = 30% to 50%; inactive = 30% or less;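 also: compound concentration not given in the record; tested on top of an EC20 dose of dopamine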
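PathHunter D2 cells, attached overnight at 37 deg C, received compound in DMSO plus dopamine at EC20 (50 nM final) for 90 min at 37 deg C. Beta-arrestin recruitment was read as luminescence after 1 h with detection reagent at ambient temperature.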
D2 ag: activates the human D2 dopamine receptor. P14416. DiscoveRx PathHunter D2 beta-arrestin, luminescence, 90 min; 100% = 57 uM dopamine signal. activation, % (test concentration not listed). 360,000 compounds, 0.084% hits. AID 624465; in the data active = activation above about 40%; inconclusive = about 15% to 40%; inactive = below about 15%; also: compound concentration not given in the record; the text of the record calls up to 30% inactive
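Agonist mode: compounds alone added to overnight-plated D2 PathHunter cells for 90 min at 37 C, with 57 uM final dopamine (EC100) defining full response. Beta-arrestin recruitment detected by chemiluminescent reagent, read after 1 h at ambient temperature.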
CtBP-E1A inh: CtBP/E1A binding inhibition. 340,000 compounds, 0.49% hits. activity change, % (no concentration beside the values). AlphaScreen GST-E1A/His-CtBP binding, 1536-well; hits give low values; control for the full effect not named in the record; in the data active means activity change below about -65%; inconclusive means about -30% to -65%; inactive means above about -30%; also: % is scaled to controls: 0 for no effect and ±100 for the full control effect
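Protein mix (5X: 125 nM each GST-E1A, His-CtBP) was incubated with pinned compound 2 h at 37 deg C in dark, in 50 mM Tris pH 8.0 buffer with 300 mM NaCl. Glutathione donor and nickel acceptor beads followed; AlphaScreen signal read after 1 h.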
The depositor's hits bear a star; ? = inconclusive; . = not tested or not shown; [ ] = dose if it differs, or a comment.

SMILES	TRPML1 ag	PINK1 expr mod	Six1-Eya2 inh	D2 PAM	D2 ag	CtBP-E1A inh
O=C(CN1CCCC1)Nc1cc(C(F)(F)F)cc(C(F)(F)F)c1	-0.9	13%	8	-10	3.0	-2
CC1CCN(S(=O)(=O)c2ccc(NC(=O)CCNC(=O)c3ccc(Cl)cc3)cc2)CC1	1.4	18%	2	-15	-2.1	5
Cc1ccc(NC(=O)COC(=O)CCC(=O)c2cccs2)c(Br)c1	3.2	1.9%	7	-2	-1.5	-8
CCOC(=O)NC(C)N1C(=O)C2C3C=CC(C3)C2C1=O (stereo not given)	0.1	3.0%	2	-3	-5.5	-24
COc1ccc(-c2cc(C(F)(F)F)nc(SCC(=O)Nc3cc(C)on3)n2)cc1OC	-0.1	8.9%	6	-7	-0.9	-3
CCOc1ccc(OCCC(=O)OCC(=O)NNC(=O)c2ccccc2)cc1	1.0	1.5%	1	7	2.3	-16
CC(C)c1ccc(N=C(N)N=C(N)N)cc1	0.5	0.4%	-1	-8	-0.8	0
CCCCn1c(N)c(N(CCOC)C(=O)c2ccc(N3C(=O)CCC3=O)cc2)c(=O)[nH]c1=O	0.0	-0.6%	4	-2	-1.2	4
COC(=O)c1c(C(=O)OC)c(-c2ccc(F)cc2)n2c1CS(=O)(=O)C2	0.0	-0.8%	-7	4	-8.2	.
CC(=O)OCC(=O)Nc1ccc(C(C)=O)cc1	-0.5	-1.0%	-2	-12	-1.6	-4
O=C(COC(=O)Cc1ccc(S(=O)(=O)N2CCOCC2)s1)Nc1ccccc1	1.1	0.1%	6	-5	0.7	19
CC(=O)c1cccc(NC(=O)CNC(=O)Cc2ccccc2)c1	-0.2	1.3%	11	-4	-3.3	0
O=C(COC(=O)CCc1nc2ccccc2c(=O)[nH]1)Nc1ccc(Cl)cn1	.	0.1%	-1	-6	-4.2	1
CCN(CC)CCCNC(=O)c1ccc2c3n(nc2c1)-c1ccc(Cl)cc1CO3	-0.1	1.2%	7	-32	-2.6	-8
O=C1CSC(=S)N1/N=C/c1ccc(C(F)(F)F)cc1	-0.1	-0.3%	?	-2	1.0	-28
COCCN(C(=O)COC(=O)c1ccc2[nH]c(C)c(C)c2c1)c1c(N)n(Cc2ccccc2)c(=O)[nH]c1=O	-0.1	12%	-17	-30	-2.8	-9
FC(F)(F)c1ccccc1-n1c(-c2cnccn2)n[nH]c1=S	1.0	0.1%	-9	0	2.4	-6
O=C(C1COc2ccccc2O1)N1CCCC1 (stereo not given)	0.3	-4.0%	-1	-8	-2.8	1
O=C1/C(=C\c2cc(Cl)c(O)c(Cl)c2)SC(=S)N1Cc1ccccc1	109*	?	28	-7	1.1	-7
Cc1ccc(NC(=O)CSCC(=O)O)c(C)c1	3.5	-0.9%	1	-7	-0.6	7
CC(C)c1cc(C(=O)Nc2cccc(Cl)c2)no1	1.1	1.2%[38.3 µM]	30	-15	-0.3	77
COc1ccc(C(=O)NCC(=O)OCC(=O)c2ccc(Cl)cc2)cc1OC	-0.3	1.0%	3	-2	-1.8	0
CN1CCC(OC(=O)c2ccccc2)CC1	2.7	1.3%	4	-14	-3.5	.
Cc1ccc(C(=O)N/N=C/c2ccc(S(=O)(=O)O)o2)c(Cl)c1	-0.8	1.3%	-5	-3	-2.7	1
CN(C)c1ccc(NC(=O)Cn2c(=O)n(Cc3ccccc3)c(=O)c3ccccc32)cc1	-0.7	?	-6	-5	-2.7	-6

New compounds follow:
SMILES	TRPML1 ag	PINK1 expr mod	Six1-Eya2 inh	D2 PAM	D2 ag	CtBP-E1A inh
NC(=O)c1nsc(C(=O)N(Cc2cccnc2)C(C(=O)NC2CCCC2)c2ccc(F)cc2)c1N (stereo not given)	-0.3	1.4%	-6	-11	-2.4	1
CN1CCN(CCCNC(=O)c2nnc(Cc3c(F)cccc3Cl)o2)CC1	0.5	?	0	3	-2.7	-9
COc1cc(C2C(N3C(=O)c4ccccc4C3=O)C(=O)N2c2ccc(C)c(C)c2)cc(OC)c1OC (stereo not given)	0.4	4.2%	-12	1	-0.2	-3
CCOc1ccc(S(=O)(=O)NCC2CCCO2)c2ccccc12 (stereo not given)	0.0	0.9%	0	-1	-1.6	-9
O=S(=O)(Cc1ccc(Cl)cc1)NCC1CCCO1 (stereo not given)	0.0	.	3	2	-2.0	4
CCC1=C(OC(=O)N(CC)CC)N2C(=O)OC(=NCC3CC3)[C@]2(C)[C@H]2C1=CC[C@H]1C(=O)N(CC(=O)OC)C(=O)[C@H]12	-0.1	-0.3%	2	-8	-2.4	-10
CCOC(=O)N1C(=O)C[C@](Sc2ccc(C)cc2)(C(=O)OC)[C@H]1c1ccccc1	-1.3	-0.4%	-7	.	.	5
CC(=O)c1cc2c(cc1NS(=O)(=O)c1ccc3c(c1)OCCO3)OCO2	0.8	.	0	-15	0.6	5
CCOC(=O)N1CCN(C(=O)COC(=O)c2cc(C)ccc2C)CC1	2.2	-1.6%	6	13	3.0	-2
CC1(C(=O)NS(=O)(=O)c2cccs2)CCN1C(=O)C1(c2ccc(Cl)cc2)CCC1 (stereo not given)	-0.6	0.5%	0	0	-3.5	7
Cc1cc(Cl)cc(C)c1OCCNCc1ccccc1	-1.5	12%	25	-41	-1.7	-16
Cn1ncc(Br)c1C(=O)NC1CCCCC1	0.6	-1.1%	5	-2	-5.5	24
CCCC(=O)N1CCC1(C)C(=O)NS(=O)(=O)c1cccs1 (stereo not given)	0.2	0.7%	10	-7	-5.6	1
Cc1cc2ncn(C(=O)c3ccc(F)cc3)c2cc1C	0.2	-0.3%	1	-17	-2.1	-2
Cc1oc2c(c1C(=O)NCCCC(=O)O)CCCC2	-0.6	.	0	-13	3.6	8
COc1cccc(-c2nc(CS(=O)(=O)CC(=O)NCCc3ccc(C)cc3)c(C)o2)c1	4.9	-0.7%	0	-13	0.2	.
NC(=O)C1CCN(CC(=O)NC(=O)NC2CCCC2)CC1	-0.6	0.6%	-2	-12	1.4	11
O=[N+]([O-])/C(C(Cl)=C(Cl)Cl)=C1\Nc2ccccc2O1	-0.4	-1.0%	-30	-4	-0.7	-8
C/C(=N\NC(=S)NCc1ccccc1)c1ccc(Cl)s1	3.5	2.6%	-8	-21	-9.2	0
N=c1scc(-c2ccccc2)n1/N=C/c1ccco1	-0.3	1.5%	-14	14	1.2	-11
Cc1ccc(C(=O)NNC(=O)CCN2C(=O)C3CCCCC3C2=O)cc1 (stereo not given)	1.1	9.5%	0	-7	0.3	10
CCNC(=S)NN(c1ccccc1)c1ccccc1	-0.9	-0.6%	6	-20	0.2	6
COc1cccc(C(=O)N2CCC(C(=O)NCc3ccco3)CC2)c1	-0.6	-0.8%	7	-3	-1.6	1
O=C(Oc1cccc2cccnc12)c1ccco1	0.3	-1.3%	?	-16	2.4	?
O=C(NCc1cccnc1)C1c2ccccc2C(=O)N1C1CCCCCC1 (stereo not given)	-0.2	-0.5%	18	-16	-3.4	0

(cont.)
SMILES	TRPML1 ag	PINK1 expr mod	Six1-Eya2 inh	D2 PAM	D2 ag	CtBP-E1A inh
CN1C(C)(C)CCCC1(C)C	0.2	1.0%	3	-5	-3.7	-6
NS(=O)(=O)c1ccc(N2C(=O)CCCC2=O)cc1	-0.4	0.3%	-4	3	0.4	18
CNC(=O)CCc1ccc(OC)cc1	1.4	-0.3%	2	1	-3.4	.
Cc1cccc(-n2ncc3c(NNC(=O)c4ccco4)ncnc32)c1	-0.6	0.3%	2	0	-2.3	-4
C=CCOc1ccc(CN(C)c2ccc(S(=O)(=O)N3CCN(C)CC3)cc2[N+](=O)[O-])cc1	12	0.8%	?	-14	-0.4	-9
Cc1ccccc1-c1ccc(=O)n(CC(=O)Nc2ccc(S(=O)(=O)N(C)C)cc2)n1	0.1	2.5%	-2	-7	-2.4	-3
NC(=O)c1c(NC(=O)C(=O)NCCCN2CCOCC2)sc2c1CCCC2	-0.2	-0.3%	-8	-9	-2.9	-14
CCn1c(C(C#N)/C(=N\S(=O)(=O)c2cccs2)c2ccccc2)nc2ccccc21 (stereo not given)	-0.2	0.6%[38.3 µM]	9	-2	-1.6	1
Cc1cc(SCC#N)nc2ccccc12	-0.2	1.2%	7	2	-2.2	3
Cn1c(CNC(=O)c2ccco2)nnc1SCC(=O)N1CCN(c2ccccc2F)CC1	0.3	4.0%	-13	1	-6.8	-23
Cn1nc(C(F)(F)F)c(C(=O)Nc2ccc(F)cc2)c1Cl	-0.6	3.8%	-4	-11	-3.3	-1
COc1ccc(OC)c(NC(=O)CCc2nnc3ccc(NCc4ccco4)nn23)c1	2.1	1.4%	6	-2	0.1	.
CN(CC(=O)NCc1cccnc1)S(=O)(=O)c1ccc2c(c1)c(=O)n(C)c(=O)n2C	-0.2	0.4%	-3	-6	-0.6	-1
COc1ccc(N2CCN(C(=O)c3cc4ccccc4o3)CC2)cc1	0.0	3.2%	4	-3	-2.4	-6
CN(C)S(=O)(=O)c1cc(C(=O)NCC2CCCO2)c(Cl)cc1Cl (stereo not given)	1.5	-1.3%	12	-2	-0.5	4
CN(c1ccccc1)S(=O)(=O)c1cccc(NC(=O)CC(C)(C)C)c1	1.4	0.4%	4	-9	0.1	4
O=C1c2c(O)cccc2Cc2cccc(O)c21	-0.2	1.4%	-10	12	?	-3
CCCNc1nc(NCC)nc(OC)n1	-0.7	0.2%	9	2	0.1	0
NCC(=O)NNC(=O)OCC1c2ccccc2-c2ccccc21	0.0	0.9%	0	-5	-3.8	2
O=C(COC(=O)c1c(Cl)cccc1Cl)Nc1ccccc1Br	4.0	0.5%	26	-12	-0.7	34
CCc1nccn1S(=O)(=O)c1ccc(Br)cc1Br	-0.9	-0.5%	-7	-9	-4.1	-3
CCOc1ccccc1Nc1nc2ccccc2[nH]1	1.1	-1.1%	-3	-11	-2.2	-4
CCN(CC)CCn1c(NCc2ccc(OC)cc2)nc2ccccc21	2.3	-2.5%	-12	-30	-3.0	-8

Compounds listed so far that contain a furan ring, fused or not:
SMILES	TRPML1 ag	PINK1 expr mod	Six1-Eya2 inh	D2 PAM	D2 ag	CtBP-E1A inh
Cc1ccc(C(=O)N/N=C/c2ccc(S(=O)(=O)O)o2)c(Cl)c1	-0.8	1.3%	-5	-3	-2.7	1
Cc1oc2c(c1C(=O)NCCCC(=O)O)CCCC2	-0.6	.	0	-13	3.6	8
N=c1scc(-c2ccccc2)n1/N=C/c1ccco1	-0.3	1.5%	-14	14	1.2	-11
COc1cccc(C(=O)N2CCC(C(=O)NCc3ccco3)CC2)c1	-0.6	-0.8%	7	-3	-1.6	1
O=C(Oc1cccc2cccnc12)c1ccco1	0.3	-1.3%	?	-16	2.4	?
Cc1cccc(-n2ncc3c(NNC(=O)c4ccco4)ncnc32)c1	-0.6	0.3%	2	0	-2.3	-4
Cn1c(CNC(=O)c2ccco2)nnc1SCC(=O)N1CCN(c2ccccc2F)CC1	0.3	4.0%	-13	1	-6.8	-23
COc1ccc(OC)c(NC(=O)CCc2nnc3ccc(NCc4ccco4)nn23)c1	2.1	1.4%	6	-2	0.1	.
COc1ccc(N2CCN(C(=O)c3cc4ccccc4o3)CC2)cc1	0.0	3.2%	4	-3	-2.4	-6
